Source: PubChem BioAssay (Broad Institute)
Shh pathway inh = blocks Sonic Hedgehog signaling; Shh-LIGHT2 Gli-luciferase reporter, 30 h; inhibition, % (no concentration beside the values); actives 2.1% (n = 22,000);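 active = replicate mean of 65% or more; inconclusive = mean lower but half the replicates past it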;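 note: pathway switched on by Shh-conditioned medium diluted 1 in 25 in low serum; 100 nL library stock added to about 40 µL; 0% = median of neutral wells and 100% = positive control level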
YB-1 expression = YB-1 expression inhibition; AID 434959; delta delta Cp (YB-1 minus CDIP) (concentration not given with the values); actives 0.37% (n = 30,000); U2OS, qRT-PCR YB-1 vs CDIP delta delta Cp, 16 h; hits give high values; zero = DMSO, each unit about twofold;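 active = delta delta Cp rounded down to an integer at or above 3, about 3 SD of DMSO wells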;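 note: higher means less YB-1 transcript or more CDIP transcript relative to DMSO; stock transfer was 100 nL into about 100 µL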
PD-1 reversal = activators reversing PD-1 mediated T-cell inhibition; 29,000 tested, under 10 active; primary human CD4 T cells, PD-L1 beads, CellTiter-Glo 96 h; activation, % (concentration not given with the values);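 active = replicate mean of 50% or more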;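 note: 0% = median vehicle wells and 100% = positive control; 100 nL library stock added to about 50 µL; numbers are from one replicate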
MITF inh = blocks MITF activity. actives 0.28% (n = 37,000). TRPM1 promoter luciferase, luminescence, 24 h. AID 2240. inhibition, % (no concentration beside the values);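 active = most replicates at 85% or more, or half of them and the mean; inconclusive = half reach 85% but not the mean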;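 note: human melanocyte line stably carrying TRPM1 promoter luciferase reporter; 0% = vehicle wells and 100% = a positive control; the first replicate is given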
Starred values were filed as active, the others as inactive; ? = inconclusive; · = not tested or not shown.

Start of the data: the first 3 compounds, ahead of the listing:
SMILES	Shh pathway inh	YB-1 expression	PD-1 reversal	MITF inh
C[C@@H]1CCCCO[C@@H](CN(C)C(=O)Cc2ccccc2)[C@@H](C)CN([C@H](C)CO)C(=O)c2cc(NC(=O)Nc3ccc(C(F)(F)F)cc3)ccc2O1	8	0.35	-1.5	17
CNC[C@@H]1Oc2c(NS(C)(=O)=O)cccc2C(=O)N([C@@H](C)CO)C[C@H]1C	-16	0.13	2.2	-2
Cc1noc(C)c1S(=O)(=O)Nc1ccc2c(c1)C(=O)N([C@@H](C)CO)C[C@H](C)[C@@H](CN(C)Cc1ccc(Cl)c(Cl)c1)O2	42	-0.036	-2.8	-13

All compounds of this part (from the top)
SMILES	Shh pathway inh	YB-1 expression	PD-1 reversal	MITF inh
C[C@@H]1CCCCO[C@@H](CN(C)C(=O)Cc2ccccc2)[C@@H](C)CN([C@H](C)CO)C(=O)c2cc(NC(=O)Nc3ccc(C(F)(F)F)cc3)ccc2O1	8	0.35	-1.5	17
CNC[C@@H]1Oc2c(NS(C)(=O)=O)cccc2C(=O)N([C@@H](C)CO)C[C@H]1C	-16	0.13	2.2	-2
Cc1noc(C)c1S(=O)(=O)Nc1ccc2c(c1)C(=O)N([C@@H](C)CO)C[C@H](C)[C@@H](CN(C)Cc1ccc(Cl)c(Cl)c1)O2	42	-0.036	-2.8	-13
COc1ccccc1NC(=O)CN(c1ccc(F)c(Cl)c1)S(C)(=O)=O	·	·	-0.6	-8
CN(C)NC(=S)NCc1ccc(F)cc1	-1	-0.24	1.1	2
O=C(NCc1ccco1)c1cc2nc(-c3cccs3)cc(C(F)(F)Cl)n2n1	·	·	-5.5	14
CS(=O)(=O)N(CC(=O)Nc1cccc(F)c1)c1cccc2ccccc12	·	·	-0.4	-9
C[C@H](CO)N1C[C@H](C)[C@H](CN(C)Cc2ccc(C(F)(F)F)cc2)Oc2c(NS(=O)(=O)c3ccccc3)cccc2C1=O	29	0.41	-1.8	1
CCc1cccc(C(C)C)c1NC(=O)Nc1ccccc1	-11	0.08	0.2	-49
O=C(CSc1nc2sc3c(c2c(=O)n1Cc1ccco1)CCC3)c1ccccc1	·	·	-1.2	5
COc1ccc2c(c1)c(CC(=O)OCC(=O)O)c(C)n2C(=O)c1ccc(Cl)cc1	13	0.72	·	1
COC(=O)C1=CO[C@@H](O[C@@H]2O[C@H](CO)[C@@H](O)[C@H](O)[C@H]2O)[C@H]([C@H](C)OC(C)=O)[C@@H]1CC(=O)O	-11	0.17	4.9	14
CCN(CCC#N)C(=S)Nc1cc(C(F)(F)F)cc(C(F)(F)F)c1	12	-0.11	0.0	-16
CC(=O)Cc1cc(=O)c2c(C)cc(O)c(C3OC(CO)C(O)C(O)C3O)c2o1 (stereo unspecified)	-11	-0.071	0.7	-15
COc1ccc(CCNC(=S)N2CCN(c3ncccn3)CC2)cc1OC	·	·	-0.9	-15
COc1ccc(C(=O)CSc2cc(C)nc3nc(C)nn23)cc1OC	·	·	-1.5	8
O=C(CN1C2=NCCCN2c2ccccc21)c1ccco1	-7	-0.075	0.2	-18
Cn1c(=S)[nH]c2sc3c(c2c1=O)CCC(C(C)(C)C)C3 (stereo unspecified)	-28	-0.38	-5.0	-17
Cc1cc(OCC(=O)Nc2ccccc2C(N)=O)c(C)cc1Br	·	·	-1.7	-18
CN(c1cccc(NC(=O)COc2ccccc2)c1)S(C)(=O)=O	·	·	1.3	-46
O=c1oc2ccccc2c(Nc2ccccc2)c1CN1CCCCC1	-7	0.27	-0.3	-3
O=C(CSc1n[nH]c(-c2cccc([N+](=O)[O-])c2)n1)Nc1cccc(C(F)(F)F)c1	·	·	-0.4	43
Cc1noc(C)c1NC(=O)N(C)C[C@@H]1Oc2c(NC(=O)Nc3ccc4c(c3)OCO4)cccc2C(=O)N([C@@H](C)CO)C[C@H]1C	-39	-0.037	3.9	-5
C[C@H](CO)N1C[C@H](C)[C@H](CN(C)S(=O)(=O)c2cccs2)Oc2ccc(NS(=O)(=O)c3ccc(Cl)cc3)cc2CC1=O	0	0.51	2.2	-6
C[C@@H]1CN([C@@H](C)CO)C(=O)c2cccc(NC(=O)c3cnccn3)c2O[C@@H]1CN(C)Cc1ccc(C(=O)O)cc1	-62	-0.022	1.4	-5
C[C@H](CO)N1C[C@H](C)[C@H](CN(C)Cc2ccncc2)Oc2c(NC(=O)c3cnccn3)cccc2C1=O	-4	-0.2	·	-5
COc1ccc(S(=O)(=O)Nc2cccc3c2O[C@H](CN(C)C)[C@@H](C)CN([C@@H](C)CO)C3=O)cc1	3	0.099	2.3	-2
C[C@H]1CN([C@@H](C)CO)C(=O)Cc2cc(NC(=O)NC3CCCCC3)ccc2O[C@@H]1CN(C)C	·	-0.4	-0.1	-15
C[C@H]1CN([C@@H](C)CO)C(=O)c2cccc(NC(=O)c3cnccn3)c2O[C@@H]1CN(C)Cc1ccc2c(c1)OCO2	-14	0.16	-0.7	-11
O=C(COc1cccc(NC(=O)c2ccccc2Cl)c1)c1ccc(F)cc1	·	·	-0.8	9
C[C@@H]1CN([C@H](C)CO)C(=O)c2cc(NC(=O)c3ccncc3)ccc2O[C@@H]1CN(C)Cc1ccccc1	3	0.016	·	0
C[C@@H]1CN([C@@H](C)CO)C(=O)c2cccc(NS(=O)(=O)c3cccs3)c2O[C@@H]1CN(C)C(=O)Nc1ccc2c(c1)OCO2	-4	-0.18	-1.2	8
C[C@@H]1CN([C@@H](C)CO)C(=O)c2cc(NC(=O)Nc3ccc(C(F)(F)F)cc3)ccc2O[C@@H]1CN(C)Cc1ccc(-c2ccccc2)cc1	-11	0.16	-4.5	-4
C[C@@H]1O[C@@H](O[C@@H]2CC[C@@]3(C)C(CC[C@]4(C)C3CC=C3[C@@H]5CC(C)(C)CC[C@]5(C(=O)O[C@@H]5O[C@H](CO)[C@@H](O)[C@H](O)[C@H]5O)CC[C@]34C)[C@]2(C)CO)[C@H](O)[C@H](O[C@@H]2OC[C@@H](O)[C@H](O)[C@H]2O)[C@H]1O (stereo partly specified)	-25	-0.44	0.6	5
Cc1ccc(S(=O)(=O)N(C)C[C@H]2Oc3c(NS(=O)(=O)c4ccccc4)cccc3C(=O)N([C@@H](C)CO)C[C@@H]2C)cc1	32	-0.021	·	-8
CCOC(=O)c1cccc(C(=O)Nc2nc3ccc(OC)cc3s2)n1	-2	-0.015	-0.1	6
c1ccc2c(c1)CN1CCCC1=N2	-18	0.26	·	-2
C[C@@H]1CN([C@@H](C)CO)C(=O)Cc2cc(NC(=O)Cc3ccccc3)ccc2O[C@@H]1CN(C)C(=O)Nc1ccccc1	-18	-0.069	-0.7	0
CC1=C(CO)CC(C(C)C2CCC3C4CC=C5CC(OC6OC(COC7OC(CO)C(O)C(O)C7O)C(O)C(O)C6O)CC(O)C5(C)C4CCC23C)OC1=O (stereo unspecified)	?	-0.079	·	·
NC(=O)CSCC(=O)Nc1ccc(Br)cc1	·	·	1.8	3
C[C@@H]1CN([C@@H](C)CO)C(=O)c2cccc(NS(=O)(=O)c3cn(C)cn3)c2O[C@@H]1CN(C)C(=O)Nc1ccccc1	-6	-0.71	1.4	-12
CCN(CC(=O)Nc1ccccc1Br)S(=O)(=O)c1ccc2ccccc2c1	·	·	0.4	1
COc1ccc(NC(=O)Nc2ccc3c(c2)C(=O)N([C@H](C)CO)C[C@H](C)[C@H](CN(C)S(=O)(=O)c2cn(C)cn2)O3)cc1	-13	0.14	0.4	0
Cc1ccc(S(=O)(=O)N(C)C[C@@H]2Oc3ccc(NS(=O)(=O)c4cccs4)cc3CC(=O)N([C@@H](C)CO)C[C@@H]2C)cc1	-3	-0.32	·	5
O=C(Nc1ccccc1)N(Cc1ccccc1)c1cccc2ccccc12	?	-0.62	-5.7	27
COc1ccc(CN(C)C[C@H]2Oc3ccc(NC(=O)CCC(F)(F)F)cc3C(=O)N([C@@H](C)CO)C[C@@H]2C)cc1	1	0.56	0.9	10
C[C@@H]1CN([C@@H](C)CO)C(=O)c2cccc(NC(=O)NC3CCCCC3)c2O[C@@H]1CN(C)S(=O)(=O)c1cccs1	2	-0.86	·	8
CCc1ccc2c(c1)c1nc3ccccc3nc1n2CC(=O)OC	·	·	-5.2	-11
C[C@H](CO)N1C[C@H](C)[C@@H](CN(C)C(=O)Nc2ccc(C(F)(F)F)cc2)Oc2ccc(NC(=O)Nc3ccc4c(c3)OCO4)cc2C1=O	15	0.15	-0.6	-2
C[C@@H]1CN([C@H](C)CO)C(=O)c2cccc(NS(=O)(=O)c3cccs3)c2O[C@@H]1CN(C)S(C)(=O)=O	0	2.5	3.9	1
(continued)
SMILES	Shh pathway inh	YB-1 expression	PD-1 reversal	MITF inh
O=C(CC12CC3CC(CC(C3)C1)C2)N1CCCC1	·	-0.33	-0.7	-8
COC(=O)c1cc(NC(=O)COc2ccccc2C)cc(C(=O)OC)c1	·	·	-0.6	-13
C[C@H]1CN([C@@H](C)CO)C(=O)c2cc(NS(=O)(=O)c3ccc(F)cc3)ccc2O[C@H]1CN(C)Cc1ccc(Cl)c(Cl)c1	14	0.17	0.9	1
C=CC(C)(O)C(O)CC1C(=C)CCC2C(C)(C(=O)O)CCCC12C (stereo unspecified)	-7	-0.043	2.2	16
C[C@H]1CN([C@@H](C)CO)C(=O)c2cccc(NC(=O)c3ccc(-c4nccs4)cc3)c2O[C@H]1CN(C)Cc1ccc(Cl)c(Cl)c1	2	0.041	·	33
O=C(CCN1CCCCC1)N1N=C(c2ccc(Cl)cc2)CC1c1ccco1 (stereo unspecified)	·	·	-3.6	8
COC1CC(O[C@H]2CC[C@]3(C)C4CC[C@@]5(C)C(=O)[C@]4(CC[C@@H]3C2)CC[C@@H]5C2=CC(=O)OC2)OC(C)C1OC1OC(COC2OC(CO)C(O)C(O)C2O)C(O)C(O)C1O (stereo partly specified)	3	-18	1.0	1
C[C@H](CO)N1C[C@H](C)[C@H](CN(C)C(=O)NC2CCCCC2)Oc2ccc(NC(=O)Cn3cnnn3)cc2CC1=O	-9	-0.49	1.2	6
C[C@@H]1CN([C@@H](C)CO)C(=O)c2cccc(NC(=O)C3CCOCC3)c2O[C@@H]1CN(C)S(=O)(=O)c1ccc(Cl)cc1	7	-0.53	0.5	-3
O=C1CC(c2ccc(O)cc2)Oc2ccccc21 (stereo unspecified)	12	0.054	0.6	-74
O=C(NCCCc1ccccc1)N1c2ccccc2Sc2ccccc21	52	0.29	0.3	67
COc1ccc(C2CC(C(F)(F)F)n3ncc(C(=O)Nc4sc5c(c4C#N)CCC(C)C5)c3N2)cc1OC (stereo unspecified)	·	·	-0.2	17
CCOc1cc(CC(=O)N[C@@H](CC(C)C)c2ccccc2N2CCCCC2)ccc1C(=O)O	1	-0.22	·	24
C[C@@H]1CN([C@H](C)CO)C(=O)c2cc(NS(=O)(=O)c3ccccc3)ccc2O[C@@H]1CN(C)C(=O)NC1CCCCC1	4	0.18	-1.5	-2
COc1ccc(NC(=O)Nc2cccc3c2O[C@@H](CN(C)Cc2ccc(C(=O)O)cc2)[C@@H](C)CN([C@@H](C)CO)C3=O)cc1	-57	0.37	0.0	-2
Cc1noc(C)c1NC(=O)N(C)C[C@@H]1Oc2ccc(NS(=O)(=O)c3ccccc3)cc2CC(=O)N([C@H](C)CO)C[C@@H]1C	-23	-0.16	·	-5
C[C@@H]1CN([C@H](C)CO)C(=O)Cc2cc(NC(=O)Nc3ccc(F)cc3)ccc2O[C@@H]1CN(C)C(=O)Nc1ccc(F)cc1	-2	0.089	-2.4	-14
CCc1cc(-c2[nH]ncc2-c2nc(C)cs2)c(O)cc1OC(C)C(=O)NN (stereo unspecified)	59	0.31	0.1	17
O=C(CC1C(=O)N(c2ccc(F)cc2)C(=S)N1CCN1CCOCC1)Nc1ccc(F)cc1 (stereo unspecified)	·	·	-3.0	-7
CCOC(=O)c1ccc(C(=S)N2CCCC2)cc1	-39	-0.25	0.5	-14

Of the compounds above, these contain an NH in an aromatic ring.
SMILES	Shh pathway inh	YB-1 expression	PD-1 reversal	MITF inh
Cn1c(=S)[nH]c2sc3c(c2c1=O)CCC(C(C)(C)C)C3 (stereo unspecified)	-28	-0.38	-5.0	-17
O=C(CSc1n[nH]c(-c2cccc([N+](=O)[O-])c2)n1)Nc1cccc(C(F)(F)F)c1	·	·	-0.4	43
CCc1cc(-c2[nH]ncc2-c2nc(C)cs2)c(O)cc1OC(C)C(=O)NN (stereo unspecified)	59	0.31	0.1	17

(more compounds)
SMILES	Shh pathway inh	YB-1 expression	PD-1 reversal	MITF inh
CC(O)c1ccc2ccccc2c1 (stereo unspecified)	-26	0.077	0.9	-12
C[C@@H]1CN([C@H](C)CO)C(=O)c2cc(NC(=O)NC3CCCCC3)ccc2O[C@@H]1CN(C)S(=O)(=O)c1cn(C)cn1	-9	0.17	·	2
C[C@H](CO)N1C[C@H](C)[C@H](CN(C)C(=O)Nc2cccc3ccccc23)Oc2ccc(NC(=O)Cc3ccccc3)cc2C1=O	·	-0.039	·	10
CCCCNC(=O)NS(=O)(=O)c1ccc(C)cc1	25	-0.13	·	-12
Cc1ccc(S(=O)(=O)N(C)CC(=O)Nc2ccc(Br)cc2C)cc1	·	·	0.4	10
Cc1ccc(C(=O)NCCNc2ccccc2[N+](=O)[O-])cc1	·	·	0.1	25

Not all compounds are listed (hit frequency here may not be typical).
